Assay outcomes deposited in PubChem BioAssay by National Center for Advancing Translational Sciences (NCATS).
VDR inh: vitamin D3 receptor (human) inhibition. VDR-SRC2-3 peptide fluorescence polarization, 2 h. Potency, µM, for inactives: max response, negative = inhibition, most hits filed as inhibitors. 0.93% of 400,000 active; active = well fitted inhibition curve with a large enough effect; inconclusive = small, poorly fitted or top-dose-only effect, or another doubt; inactive = no such curve, though single readings can be large or run the other way; note: series mostly up to about 120 µM
Target sequence (P11473 whole entry, looked up): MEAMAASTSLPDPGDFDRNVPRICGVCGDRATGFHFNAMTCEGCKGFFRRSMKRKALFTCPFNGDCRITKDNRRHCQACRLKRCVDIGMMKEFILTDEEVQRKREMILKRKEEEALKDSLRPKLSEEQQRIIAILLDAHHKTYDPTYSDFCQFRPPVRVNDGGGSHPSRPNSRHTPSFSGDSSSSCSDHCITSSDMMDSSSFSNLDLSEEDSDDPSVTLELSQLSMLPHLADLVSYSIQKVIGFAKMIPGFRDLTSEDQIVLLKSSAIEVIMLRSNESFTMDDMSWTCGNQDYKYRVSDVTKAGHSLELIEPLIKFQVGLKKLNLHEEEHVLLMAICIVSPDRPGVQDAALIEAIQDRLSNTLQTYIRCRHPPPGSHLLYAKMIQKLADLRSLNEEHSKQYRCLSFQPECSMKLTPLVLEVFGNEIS
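FP read-out; VDR + SRC2-3 coactivator peptide; 23 nl compound by pintool; 2 h RT incubation; reagents held at 4 deg C, protected from light.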
Active calls of the source: *; & = joins results of further samples; [ ] = another dose, or the depositor's remark. % is set by controls: 0 for no effect and ±100 for the full control effect; potency is the fitted concentration of half-maximal effect. An excerpt; the hit share may differ from the screen's.

`CCCNS(=O)(=O)c1cc(Cl)ccc1OC` gave VDR inh 9%.
For C=CCn1c(SCC(=O)N(CCOC)c2c(N)n(CC(C)C)c(=O)[nH]c2=O)nc2ccccc21 the results were VDR inh -16%.
Screening OCc1nc2ccccc2n1CC(O)Cn1ccc2ccccc21 (centres undefined) returned VDR inh 10%.
Screening COc1ccc(C(=O)c2c[nH]c(C(=O)NCCCN3CCOCC3)c2)cc1 returned VDR inh -11%.
Screening CCOC(=O)N1CCN(C(=O)CCCOc2ccccc2)CC1 returned VDR inh 5%.
`Cc1cc(C)n(C(=O)CN(C)S(=O)(=O)c2ccc([N+](=O)[O-])cc2)n1` gave VDR inh 6%.
COc1ccc(C(=O)Nc2ccc3c(c2)nc(CCNC(C)=O)n3C)cc1 was read as VDR inh 11%.
Screening C/C=N\NC(=O)COc1cc(C)ccc1C returned VDR inh 3%.
CC(=O)Nc1ccc(NC(=O)CN(c2cccc(C)c2)S(C)(=O)=O)cc1 was read as VDR inh 1%.
COc1cc(NC(=O)CCC(=O)c2cccs2)cc(OC)c1 was read as VDR inh 4%.
For Cc1ccc(NC(=O)N2CCN(c3ccc(Cl)c(Cl)c3)CC2)cc1 the results were VDR inh -12%.
Screening O=C(c1ccccc1F)N(Cc1ccccc1)Cc1ccccc1 returned VDR inh -11%.

Arranged by number of heavy atoms (smallest number first): three of the compounds above
Screening CCOC(=O)N1CCN(C(=O)CCCOc2ccccc2)CC1 returned VDR inh 5%.
Screening OCc1nc2ccccc2n1CC(O)Cn1ccc2ccccc21 (centres undefined) returned VDR inh 10%.
Screening COc1ccc(C(=O)c2c[nH]c(C(=O)NCCCN3CCOCC3)c2)cc1 returned VDR inh -11%.

Next part:
Screening COc1ccc(NC(=O)c2ccccc2Cl)cc1NC(=O)CN1CCOCC1 returned VDR inh 3%.
N#Cc1ccccc1Cn1c(=O)n(Cc2ccc(C(=O)NCc3ccco3)cc2)c(=O)c2sccc21 was read as VDR inh 2%.
`COC(=O)CNC(=O)Cn1nc(C)c([N+](=O)[O-])c1C` gave VDR inh -8%.
Screening CC(NC(=S)Nc1ccccc1Cl)C(c1cccs1)N1CCCC1 (centres undefined) returned VDR inh 6%.
For Cc1nn(C)cc1S(=O)(=O)N1CCN(Cc2cccc(Cl)c2)CC1 the results were VDR inh 4%.
`CCOC(=O)c1cc(-c2ccc([N+](=O)[O-])cc2)nc2c1c(=O)[nH]c(=O)n2Cc1ccccc1` gave VDR inh 22%.
`Cc1ccnc(NC(=O)C2CCN(S(=O)(=O)c3ccc(Cl)c(C(F)(F)F)c3)CC2)c1` gave VDR inh -4%.
Nc1ccc(CSc2ccc(Cl)cc2)c(Cl)c1 was read as VDR inh 8%.
`CCN(CC)S(=O)(=O)c1ccc(Cl)c(C(=O)OC2CC(C)OC2=O)c1` (centres undefined) gave VDR inh 1%.
`O=C(NCCc1ccc(Cl)cc1)C1CCN(S(=O)(=O)c2ccc(Br)s2)CC1` gave VDR inh 3%.
Screening CCOC(=O)N1CCN(S(=O)(=O)c2ccc(C(=O)Nc3nc4ccc(F)cc4s3)cc2)CC1 returned VDR inh -8%.
For Cn1c(N)c(C(=O)COC(=O)Cc2ccsc2)c(=O)n(C)c1=O the results were VDR inh 0%.
For CC(C)(C)c1ccc(-c2noc(CNC(=O)c3ccco3)n2)cc1 the results were VDR inh 2%.
Screening C=CCn1c(COc2ccc(Cl)cc2)nnc1SCC(=O)N/N=C/c1cccc(O)c1 returned VDR inh -1%.
CC1=C(c2ccc(C)cc2)S(=O)(=O)N(Cc2ccc(C(=O)NCc3ccccc3F)cc2)C1=O was read as VDR inh 0%.
For COC(=O)c1cc(C(=O)Nc2ccc(S(=O)(=O)NC(C)(C)C)cc2)cc([N+](=O)[O-])c1 the results were VDR inh -2%.
Screening CCOc1ccccc1C1C(C(=O)Nc2ccccc2OC)=C(C)Nc2nnnn21 (centres undefined) returned VDR inh 0%.
For CC(=O)N1CCOc2ccc(S(=O)(=O)N3CCC(C(=O)NCc4ccc(F)cc4)CC3)cc21 the results were VDR inh -7%.
For NS(=O)(=O)c1cc(C(=O)OCC(=O)Nc2ccc3[nH]c(=O)[nH]c3c2)ccc1Cl the results were VDR inh -16%.
For O=C(COc1ccc(S(=O)(=O)NC2CCCCC2)cc1)NCc1ccccn1 the results were VDR inh -5%.
Screening O=C(c1ccc(CSc2nc3ccncc3n2Cc2cccc(F)c2)cc1)N1CCCCC1 returned VDR inh 14%.
Screening CCCCC(=O)NC(c1ccc(N(C)C)cc1)c1ccc2cccnc2c1O (centres undefined) returned VDR inh -27%.
`COc1ccc(-c2nnc(SCC(=O)N3CCc4ccccc4C3)o2)cc1` gave VDR inh -5%.
Cc1ccc(-c2noc(CCC(=O)NC3CCCC3)n2)cc1 was read as VDR inh 7%.
`Nc1ncccc1OCc1ccc(Br)cc1` gave VDR inh 23%.
For CCOc1ccccc1NC(=O)C1CCN(S(=O)(=O)c2ccc3c(c2)CC(C)N3C(C)=O)CC1 (centres undefined) the results were VDR inh 6%.
For Oc1ccccc1C1C=C(c2ccc3c(c2)OCO3)NC(c2c(F)cccc2Cl)N1 (centres undefined) the results were VDR inh inconclusive.
`CN1C(=O)NC(c2ccccc2)C2=C1CN(c1ccc3ccccc3c1)C2=O` (centres undefined) gave VDR inh 7%.
`CCn1cc(C2=NOC(C(=O)Nc3ccc4c(c3)OCO4)C2)c(C)n1` (centres undefined) gave VDR inh 4%.
Cc1c(Cl)cccc1NC(=S)NNc1ncc(C(F)(F)F)cc1Cl was read as VDR inh -26%.
O=C(Nc1ccc2ccccc2c1)c1onc2c1CCCC2 was read as VDR inh 6%.
`O=C(CC1Sc2ncnn2C1=O)Nc1ccccc1` (centres undefined) gave VDR inh -3%.
Screening CC(=O)c1c(C)[nH]c(C(=O)OCC(=O)Nc2cc(Cl)ccc2[N+](=O)[O-])c1C returned VDR inh 2%.
Screening C/C(=N\N=C(/N)c1nonc1N)c1ccc2c(c1)OCO2 returned VDR inh -11%.
For COc1ccc(-c2cc(C(=O)N3CCN(c4ccccc4)CC3)no2)cc1 the results were VDR inh -14%&14%.
CC1CCc2c(sc(NC(=O)CCCn3cnc([N+](=O)[O-])n3)c2C(N)=O)C1 (centres undefined) was read as VDR inh -14%.

Arranged by formula weight (lowest first): some entries from above.
`O=C(CC1Sc2ncnn2C1=O)Nc1ccccc1` (centres undefined) gave VDR inh -3%.
`Nc1ncccc1OCc1ccc(Br)cc1` gave VDR inh 23%.
Screening C/C(=N\N=C(/N)c1nonc1N)c1ccc2c(c1)OCO2 returned VDR inh -11%.
O=C(Nc1ccc2ccccc2c1)c1onc2c1CCCC2 was read as VDR inh 6%.
Cc1ccc(-c2noc(CCC(=O)NC3CCCC3)n2)cc1 was read as VDR inh 7%.
`CCn1cc(C2=NOC(C(=O)Nc3ccc4c(c3)OCO4)C2)c(C)n1` (centres undefined) gave VDR inh 4%.
For COc1ccc(-c2cc(C(=O)N3CCN(c4ccccc4)CC3)no2)cc1 the results were VDR inh -14%&14%.
`CN1C(=O)NC(c2ccccc2)C2=C1CN(c1ccc3ccccc3c1)C2=O` (centres undefined) gave VDR inh 7%.
Screening CCCCC(=O)NC(c1ccc(N(C)C)cc1)c1ccc2cccnc2c1O (centres undefined) returned VDR inh -27%.
`COc1ccc(-c2nnc(SCC(=O)N3CCc4ccccc4C3)o2)cc1` gave VDR inh -5%.
Screening CC(=O)c1c(C)[nH]c(C(=O)OCC(=O)Nc2cc(Cl)ccc2[N+](=O)[O-])c1C returned VDR inh 2%.
Cc1c(Cl)cccc1NC(=S)NNc1ncc(C(F)(F)F)cc1Cl was read as VDR inh -26%.
For O=C(COc1ccc(S(=O)(=O)NC2CCCCC2)cc1)NCc1ccccn1 the results were VDR inh -5%.
Screening CCOc1ccccc1C1C(C(=O)Nc2ccccc2OC)=C(C)Nc2nnnn21 (centres undefined) returned VDR inh 0%.
For Oc1ccccc1C1C=C(c2ccc3c(c2)OCO3)NC(c2c(F)cccc2Cl)N1 (centres undefined) the results were VDR inh inconclusive.
Screening O=C(c1ccc(CSc2nc3ccncc3n2Cc2cccc(F)c2)cc1)N1CCCCC1 returned VDR inh 14%.
For CC(=O)N1CCOc2ccc(S(=O)(=O)N3CCC(C(=O)NCc4ccc(F)cc4)CC3)cc21 the results were VDR inh -7%.

Later entries
`c1ccc2c(c1)CNC1(CCCCC1)C2` gave VDR inh -8%.
Screening CCCCCC(=O)Nc1ccc(C(=O)COC(=O)Cn2cnc3c2c(=O)n(C)c(=O)n3C)cc1 returned VDR inh -15%.
Screening Cc1cc(-c2nc3ncccc3o2)ccc1NC(=O)COc1ccccc1C returned VDR inh 8%.
COCCN(Cc1ccccc1)C(=O)c1ccc2c(=O)n3c(nc2c1)CCC3 was read as VDR inh -5%.
`Cc1ccc(OCC(=O)Nc2nnc(S(=O)(=O)N3CCC(C)CC3)s2)cc1` gave VDR inh 10%.
CCOC(=O)c1c(O)c2ccccc2n(-c2ccccc2)c1=O was read as VDR inh 0%.
`CCN(C(=O)COc1cccc2cccnc12)C1CCS(=O)(=O)C1` (centres undefined) gave VDR inh -15%.
Screening CCC/C(=N/NC(=O)c1ccccc1Cl)c1ccccc1 returned VDR inh -9%.
`CCCN(C(=O)CSc1nnc2ccccn12)C1CCS(=O)(=O)C1` (centres undefined) gave VDR inh 0%.
`O=C(/C=C/c1ccco1)N1CCN(S(=O)(=O)c2ccc(F)c(F)c2F)CC1` gave VDR inh -8%.
`COc1ccccc1NC(=O)CN(Cc1ccco1)C(=O)c1cccs1` gave VDR inh 2%.
For C=CCC1c2cccc(C(=O)O)c2C(=O)N1c1cccc(C)c1 (centres undefined) the results were VDR inh -2%.
For CCOC(=O)CSc1nc(-c2ccccc2)cc(C(F)(F)F)c1C#N the results were VDR inh 33%[activator].
`Cc1ccc(S(=O)(=O)N2CN(CC3CCCO3)c3nc4ccccc4nc32)c(C)c1` (centres undefined) gave VDR inh -8%.
Screening CCc1ccc(NC(=O)c2sc3nc(C)c(Cl)c(C)c3c2NC(=O)c2ccccc2OC)cc1 returned VDR inh -1%.
CCOC(=O)c1cc(-c2ccc(F)cc2)n(CCC(=O)NCc2ccccc2OC)c1C was read as VDR inh 7%.
CCn1c(=O)c(C(=O)NNS(=O)(=O)c2ccc(C)cc2)c(O)c2ccccc21 was read as VDR inh -11%.
For COc1ccc(NC(=O)CNc2cc(S(=O)(=O)N3CCOCC3)ccc2NCC2CCCO2)cc1 (centres undefined) the results were VDR inh -12%.
Screening CCOC(=O)Cc1csc(NC(=O)COc2cccc(C)c2)n1 returned VDR inh 16%.
Cc1cc(=O)oc2cc(NC(=O)COc3cccc(C(F)(F)F)c3)ccc12 was read as VDR inh 11%.
`Cc1cccc(NC(=O)CN2CCN(C(=O)c3ccc(-c4nc5ccccc5s4)o3)CC2)c1C` gave VDR inh 3%.
CCc1ccc(OCCn2cccn2)cc1 was read as VDR inh -11%.
Cc1cc(C)nc(-n2nc(C)c3c2N(Cc2ccccc2F)C(=O)CC3c2ccc(Cl)cc2)n1 (centres undefined) was read as VDR inh 19%.
CCc1ccccc1NC(=O)CSc1nc2c(c(-c3ccco3)c1C#N)CCCC2 was read as VDR inh -5%.
For CNc1nc(Cl)nc2ncn(C)c12 the results were VDR inh -13%.
CCN(CC)CCn1c(=O)n(-c2ccc(Cl)cc2)c(=O)c2c3c(sc21)CN(C)CC3 was read as VDR inh inconclusive.
`O=C(OCc1ccc(F)cc1)c1ccc2ccccc2n1` gave VDR inh 6%.
For CC(=O)Nc1ccc(NC(=O)CCCCCn2nnc3ccccc3c2=O)cc1 the results were VDR inh -8%.
`O=C(Cn1c(=O)oc2ccccc21)Nc1ccc(Cl)cc1` gave VDR inh -7%.
COc1cc(OC)cc(-n2c(=O)c3sccc3n(Cc3ccc(F)cc3)c2=O)c1 was read as VDR inh 5%.
Screening S=c1ncc2[nH]c(=S)[nH]c2[nH]1 returned VDR inh 32µM*.
For O=C(C1COc2ccccc2O1)N1CCc2ccccc21 (centres undefined) the results were VDR inh 10%.
Screening CCOc1ccccc1NC(=O)c1sc2nc3c(cc2c1N)CN(Cc1ccccc1)CC3 returned VDR inh -11%.
Screening O=C(COc1ccc(S(=O)(=O)N2CCCCC2)cc1)N1CCCC1 returned VDR inh -10%.
Screening Cc1ccc(-c2cn3nc(C)c(C)nc3n2)cc1 returned VDR inh -16%.
`COc1cccc(C2CC(c3c(Cl)cccc3Cl)n3nc(N)nc3N2)c1` (centres undefined) gave VDR inh -2%.
For CCn1c(Cn2nnc(-c3ccccc3)n2)nnc1SCC(=O)Nc1cccc(C(C)=O)c1 the results were VDR inh 15%.
Screening Cn1c(Cn2c(=O)sc3ccccc32)nnc1SCC(=O)Nc1ccc(F)cc1 returned VDR inh -4%.
Cc1nc(NS(=O)(=O)c2ccccc2)sc1C(=O)N/N=C/c1ccccc1 was read as VDR inh -5%.
Screening Cc1ccc(C(=O)Nc2cccnc2)cc1S(=O)(=O)N1CCCC1 returned VDR inh 10%.
CCCCSC1=N/C(=C/c2ccsc2)C(=O)N1c1ccccc1 was read as VDR inh -12%.
For COc1ccc(CCNC(=O)Cn2c(=O)oc3ccccc32)cc1OC the results were VDR inh 19%.
Screening O=C(COC(=O)CCc1ccccc1)Nc1cc(S(=O)(=O)N2CCOCC2)ccc1N1CCCC1 returned VDR inh 11%.
Cc1nonc1NC(=O)CSc1ccc(-c2ccccc2)nn1 was read as VDR inh 10%.
COc1ccc2c(c1)C1=NN(/C(C)=C/C(C)=O)C(c3cccc(F)c3)C1CC2 (centres undefined) was read as VDR inh -10%.
`O=C(CCCCn1c(=O)c2ccccc2n(CC(=O)Nc2cccc(F)c2)c1=O)NCCc1ccccc1` gave VDR inh 20%.
`Cc1ccccc1NS(=O)(=O)c1cccc2nonc12` gave VDR inh 1%.
Screening CCc1cccc(NC(=O)Nc2csc3c2CCCC3)c1 returned VDR inh -13%.
`Cc1cc(C)n(/C(=C/N(C)C)C(=O)c2ccccc2)n1` gave VDR inh -10%.
Fc1ccccc1-c1nc(NCCCN2CCOCC2)c2ccccc2n1 was read as VDR inh -2%.
For Nc1ncnc2sc3c(c12)CCNC3 the results were VDR inh 11%.
`CCOC(=O)C(NC=O)(NC(C)(C)C)C(=O)OCC` gave VDR inh 10%.
